Screens from PubChem BioAssay.
PABP FP inh: blocks human PABP binding to poly(A) RNA. P11940. fluorescence polarization. inhibition, % at 35 µM. hit rate 1% among 290,000. AID 2014;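 active means 50% or more with normal probe brightness, or confirmed in later tests; about a fifth of its hits are not listed in these tables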;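 further: calls also rest on retests at 20 µM and on dose response follow-up; controls were probe without protein and protein plus probe with vehicle; some compounds called inactive have numbers as strong as hits; many hits fall short of the cut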
Target sequence (P11940 whole entry, looked up): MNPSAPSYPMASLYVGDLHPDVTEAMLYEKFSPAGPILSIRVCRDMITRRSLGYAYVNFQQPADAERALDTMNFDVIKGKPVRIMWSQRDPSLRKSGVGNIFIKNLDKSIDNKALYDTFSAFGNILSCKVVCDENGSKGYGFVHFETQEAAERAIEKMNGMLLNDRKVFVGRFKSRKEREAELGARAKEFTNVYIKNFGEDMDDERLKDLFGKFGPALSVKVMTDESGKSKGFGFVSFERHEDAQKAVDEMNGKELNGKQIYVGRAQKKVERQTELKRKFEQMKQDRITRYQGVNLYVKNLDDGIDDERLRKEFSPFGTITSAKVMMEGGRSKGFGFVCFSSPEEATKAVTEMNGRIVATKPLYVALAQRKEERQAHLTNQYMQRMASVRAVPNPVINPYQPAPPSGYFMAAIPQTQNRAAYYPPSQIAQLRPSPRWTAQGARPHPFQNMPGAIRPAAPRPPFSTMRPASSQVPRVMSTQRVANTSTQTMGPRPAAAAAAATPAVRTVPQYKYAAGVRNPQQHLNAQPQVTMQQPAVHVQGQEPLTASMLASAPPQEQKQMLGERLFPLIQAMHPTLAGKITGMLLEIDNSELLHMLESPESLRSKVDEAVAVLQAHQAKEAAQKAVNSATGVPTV
CSC inhib: cancer stem cell inhibition | cancer stem cell-like cells viability, luminescence | inhibition, % at 7.5 µM | hit rate 1.1% among 300,000 | AID 2717;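 active means mean at 75% or more and at least half the replicates too; tested in HMLE shEcad cells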;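 further: 0% = median of negative and 100% = median of positive control wells; the first replicate is given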
MT1-MMP act inh: inhibitors of human MT1-MMP activation | hit rate 0.061% among 360,000 | AID 651647 | HT1080 RFP-PRO-GFP cells, GFP/RFP ratio fluorescence, overnight; percent of plate control window, DMSO zero | GFP/RFP ratio change, % at 20 µM;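 active means GFP/RFP ratio change of at least 30% with cell ATP level not reduced by more than half and red fluorescence within 50% of control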; further: strong numbers were not always called active
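Compound: 20 µM single dose, 1% DMSO / System: HT1080 RFP-PRO-GFP cells / Controls: DMSO and RFP-L50D-GFP cell wells / Read-out basis: GFP/RFP fluorescence ratio / Schedule: overnight compound exposure at 37 °C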
Yeast UUG start: alters start codon recognition fidelity in yeast. activity score, % at 18.7 µM. hit rate 0.13% among 350,000. S. cerevisiae UUG-firefly luciferase reporter, luminescence/redox ratio. AID 602363;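 active means replicate mean at a twofold rise or more, about +100% in these data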;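 further: firefly luciferase made from a UUG start codon reports start codon fidelity; reporter light over untreated wells divided by growth signal over untreated wells; some hits fall short of that in this replicate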
eIF4H inh: inhibitors of RNA binding by human eIF4H. Q15056. eIF4H fluorescence polarization binding assay. inhibition, % at 35 µM. hit rate 0.94% among 290,000. AID 2012;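 active means 50% or more with normal probe brightness, or confirmed in later tests; about a fifth of its hits are not listed in these tables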;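 further: calls also rest on retests at 20 µM and on dose response follow-up; 0% = protein and probe with vehicle and 100% = probe without protein; strong numbers were not always called active; many hits fall short of the cut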
Rce1 inhib: blocks yeast Ras-converting enzyme. Q03530. yeast membranes, quenched prenylated peptide cleavage fluorescence. calls only. hit rate 0.27% among 290,000;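 active means fall in fluorescence gain of 50% or more versus controls, with final raw signal at or below 3038400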;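 further: plate controls were neutral control wells for no effect and wells lacking membranes for full effect; tested at 10 µM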
Env fusion inh: HIV envelope-mediated fusion inhibition. hit rate 1.1% among 360,000. inhibition, % at 12.3 µM. HeLa-JRFL Env/CEM21 cell fusion, luciferase. AID 651610;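 active means mean replicate inhibition score of at least 50 and every replicate individually at or above 50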;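 further: 0% = plate neutral controls and 100% = maraviroc near 300 nM; one replicate is shown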
MT1-MMP act inh RFP: recorded beside MT1-MMP act inh, whose call it bears; RFP signal change, %; measured here: RFP expression control read;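 0 = vehicle wells; hits needed this value within 50% of zero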
The depositor's hits bear a star; i = inactive; x = no result given.

item | SMILES | PABP FP inh | CSC inhib | MT1-MMP act inh | MT1-MMP act inh RFP | Yeast UUG start | eIF4H inh | Rce1 inhib | Env fusion inh
1 | Cc1cccc2cc(CN(Cc3cccnc3)C(=O)c3ccccc3F)c(Cl)nc12 | -10 | -5 | -4 | -8 | -20 | 13 | i | -6
2 | Cc1cccc(NC(=O)CO/N=C/c2ccc3c(c2)OCO3)c1 | 22 | 0 | 2 | 4 | x | 0 | i | -18
3 | CCn1c(SCC(=O)Nc2ccc(NC(=O)c3cccs3)cc2)nnc1-c1cccnc1 | -6 | -4 | -4 | -1 | 3 | -8 | i | x
4 | COc1cc(OC)c2ccc(=O)oc2c1C(CCN1CCCC1)c1ccc2c(c1)OCO2 (centres undefined) | -9 | 2 | 0 | 5 | -6 | 2 | i | 16
5 | CC1=C(C(=O)N(C)C)CC(CC(=O)NC2CCCCC2)C(=O)N1CCC1=CCCCC1 (centres undefined) | x | x | 0 | 0 | -1 | x | x | 9
6 | CC(=O)N(C(C)=O)c1cccc(N(Cc2ccccc2)Cc2ccccc2)c1 | x | x | -7 | -16 | -2 | x | x | -4
7 | Cc1ccc(O)c(/C=N/NC(=O)COc2ccc3c(C)cc(=O)oc3c2)c1 | 1 | x | 4 | 0 | -5 | 20 | i | -11
8 | Cc1nnc2ccc(-c3cccc(NS(=O)(=O)c4ccccc4Cl)c3)nn12 | x | 13 | 13 | 6 | -17 | x | i | -38
9 | O=C(O)Cn1nc(-c2ccc(F)cc2)oc1=O | -15 | 0 | 2 | 3 | -24 | 4 | i | 9
10 | OC(CN1CCN(c2ncc(C(F)(F)F)cc2Cl)CC1)c1ccccc1 (centres undefined) | -10 | 33 | 10 | 5 | -10 | -6 | i | 5
11 | O=C(CSc1nnc(CNC(=O)c2c(F)cccc2Cl)o1)NCCc1ccccc1 | 4 | 6 | -2 | 2 | -15 | 2 | i | -5
12 | Cc1cc(SCc2ccc(Br)cc2)nc(=O)[nH]1 | x | 3 | -2 | -3 | -15 | x | i | -18
13 | Cc1nc(Nc2ccccc2)sc1C | 0 | -21 | 3 | 7 | -30 | -13 | i | 7
14 | Cn1nc(C(=O)Nc2ccc(-n3cnnn3)cc2)c2ccccc2c1=O | x | 6 | 4 | 1 | -18 | x | x | -74
15 | Cc1[nH]n(S(=O)(=O)Cc2ccccc2)c(=O)c1N=Nc1ccccc1Cl | -13 | -10 | 1 | 5 | -2 | 10 | i | 8
16 | CCOc1ccc(NS(=O)(=O)c2ccc(NC(=O)C3CCCO3)cc2)cc1 (centres undefined) | -6 | -6 | -1 | -9 | 7 | 2 | i | x
17 | CCN1C(=NCc2ccco2)N[C@@H](c2cccc(C(F)(F)F)c2)C(C(=O)OC)=C1C | x | x | -18 | -3 | -6 | x | x | -12
18 | CC(C)c1ccc(N(C(=O)c2cc3ccccc3oc2=O)C2C=CS(=O)(=O)C2)cc1 (centres undefined) | -4 | -12 | -2 | 0 | x | -5 | i | 8
19 | COc1cc2c(cc1NC(=O)CN1C(=O)NC3(CCc4ccccc43)C1=O)oc1ccccc12 (centres undefined) | -3 | 66 | 2 | -11 | -2 | -4 | i | -88
20 | COc1cccc(C(=O)Oc2ccc(N3C(=O)CCC3=O)c(C)c2)c1 | -7 | 6 | -3 | -3 | x | -9 | i | -6
21 | Cc1nc2cc(NC(=O)c3ccc(Cl)cc3)ccc2n1C | -4 | -1 | 3 | -10 | -22 | 0 | i | -84
22 | CCn1cc(/C=N/NC(=O)c2ccc(C#N)cc2F)c2ccccc21 | -4 | -2 | 6 | 4 | -5 | -5 | i | 11
23 | Cc1ccc(F)c(S(=O)(=O)NC(=O)C2(C)CCN2C(=O)C/C=C/c2ccccc2)c1 (centres undefined) | x | x | 2 | 3 | 8 | x | x | 3
24 | Cc1cccc(C(=O)N=C2SC3CS(=O)(=O)CC3N2c2ccccc2)c1 (centres undefined) | x | x | -3 | -3 | -6 | x | x | 7
25 | CCOC(=O)c1cc2sccc2n1CC(=O)C(C)(C)C | 0 | -9 | -1 | -4 | x | 9 | i | 12

(next part)
item | SMILES | PABP FP inh | CSC inhib | MT1-MMP act inh | MT1-MMP act inh RFP | Yeast UUG start | eIF4H inh | Rce1 inhib | Env fusion inh
26 | Cc1cc(-c2nnc(SCC(=O)Nc3ccc(Br)cc3F)n2N)n[nH]1 | -14 | -4 | 3 | 2 | -25 | -10 | i | 1
27 | Cc1c(NC(=O)C(C)SC(=S)N2CCCC2)c(=O)n(-c2ccccc2)n1C (centres undefined) | x | 15 | 0 | 1 | 4 | x | x | x
28 | Cc1cccc(NC(=O)C2CCN(C(=O)c3ccc(Cl)cc3)CC2)n1 | x | x | -2 | 0 | -12 | x | i | 2
29 | COc1cccc(CN2CC(C(=O)N3CCCC3)CCC2=O)c1 (centres undefined) | -10 | -9 | 2 | 6 | 59 | -5 | i | -5
30 | Cc1ccc(NC(=S)N(CCN(C)C)C(C)c2ccco2)cc1C (centres undefined) | -6 | -23 | 2 | 3 | -22 | -2 | i | 19
31 | COc1cc(Nc2ccn3nc(-c4ccc(F)cc4)cc3n2)cc(OC)c1OC | x | x | -1 | 1 | -9 | x | x | -16
32 | CC1(C)CC2CC(C)(CN2C(=O)COC(=O)CNC(=O)c2ccc(Cl)c(Cl)c2)C1 (centres undefined) | 3 | -11 | 2 | 2 | x | 1 | i | 21
33 | Cc1ccc(C2(C(F)(F)F)N=C3Sc4cc(C)ccc4N3C(=O)N2)cc1 (centres undefined) | -11 | 6 | x | x | x | -3 | x | -1
34 | CC(=O)c1c(C)[nH]c(C(=O)COC(=O)CCSc2ccccc2)c1C | 6 | 3 | 1 | 0 | 10 | -10 | x | -18
35 | CC(N)c1csc(Nc2ccc(C(=O)NCCO)cc2)n1 (centres undefined) | x | x | 3 | 2 | -1 | x | x | -2
36 | CCOc1ccc(CC(=O)N2CCN(c3ccc(N4CCOCC4)nn3)CC2)cc1OCC | -6 | 6 | 2 | 0 | -12 | 0 | i | -9
37 | CSCCC(NC(=O)c1ccc(Cl)cc1)C(=O)OCC(=O)N1CCCC1=O (centres undefined) | x | 3 | 3 | 4 | 6 | x | x | -13
38 | COc1cccc(N2CCN(Cc3nc(N)nc(Nc4ccccc4OC)n3)CC2)c1 | -8 | -10 | 1 | 1 | -24 | -2 | i | 12
39 | COc1ccc(-c2nc3ccc(C(=O)NCC(OC)OC)cc3nc2-c2ccc(OC)c(OC)c2)cc1OC | 3 | -23 | 1 | 2 | 21 | 0 | i | 37
40 | C/C=C/C(=O)OCC(=O)Nc1cccc(Br)c1 | 0 | 1 | -1 | 0 | x | 1 | i | 16
41 | Cc1cc(/C=C2/SC(=O)N(CC(=O)N3CCOCC3)C2=O)c(C)n1-c1ccccc1F | 5 | -2 | 1 | 8 | x | -8 | i | -13
42 | COc1ccc(-c2nc3ncnn3cc2C)cc1F | -4 | -6 | 2 | 4 | -18 | 3 | i | -7
43 | CCc1ccc(OCC2c3cc(OC)c(OC)cc3CCN2C(=S)NC)cc1 (centres undefined) | -18 | -8 | 10 | 2 | x | 4 | i | -5
44 | Cc1ccc(-c2nnc(SCC(=O)NNC(=O)COc3cccc(C)c3)n2C)cc1 | -20 | -4 | 18 | 8 | -4 | 1 | i | 30
45 | CC1CCCN(c2ncnc3c2cnn3-c2ccc(Cl)cc2)C1 (centres undefined) | 13 | 61 | 0 | -3 | -72 | -6 | i | 27
46 | O=C(C1CCCCC1)N1CCCC(c2nc3c(nnn3Cc3ccccc3)c(=O)[nH]2)C1 (centres undefined) | 1 | -13 | 8 | 6 | -2 | -5 | i | 79*
47 | COCCCNC(=O)Cn1nc(-c2ccc(C)cc2)ccc1=O | 2 | 9 | 6 | 3 | -7 | 0 | i | x
48 | CN(C)c1ccc(-c2nnc(-c3ccccc3F)o2)cc1 | 6 | 0 | 2 | -2 | -18 | -5 | i | -164
49 | CC(C)C(NC(=O)c1c(F)cccc1F)C(=O)NCCc1ccc(S(N)(=O)=O)cc1 (centres undefined) | 3 | -9 | 0 | 2 | -3 | 5 | i | -3
50 | NS(=O)(=O)c1ccc(CCNC(=O)CCCn2c(=O)[nH]c3ccc(Br)cc3c2=O)cc1 | 1 | -9 | 3 | 2 | x | -4 | i | 5

6 records picked at random from the list so far, as already listed:
item | SMILES | PABP FP inh | CSC inhib | MT1-MMP act inh | MT1-MMP act inh RFP | Yeast UUG start | eIF4H inh | Rce1 inhib | Env fusion inh
37 | CSCCC(NC(=O)c1ccc(Cl)cc1)C(=O)OCC(=O)N1CCCC1=O (centres undefined) | x | 3 | 3 | 4 | 6 | x | x | -13
28 | Cc1cccc(NC(=O)C2CCN(C(=O)c3ccc(Cl)cc3)CC2)n1 | x | x | -2 | 0 | -12 | x | i | 2
48 | CN(C)c1ccc(-c2nnc(-c3ccccc3F)o2)cc1 | 6 | 0 | 2 | -2 | -18 | -5 | i | -164
44 | Cc1ccc(-c2nnc(SCC(=O)NNC(=O)COc3cccc(C)c3)n2C)cc1 | -20 | -4 | 18 | 8 | -4 | 1 | i | 30
41 | Cc1cc(/C=C2/SC(=O)N(CC(=O)N3CCOCC3)C2=O)c(C)n1-c1ccccc1F | 5 | -2 | 1 | 8 | x | -8 | i | -13
38 | COc1cccc(N2CCN(Cc3nc(N)nc(Nc4ccccc4OC)n3)CC2)c1 | -8 | -10 | 1 | 1 | -24 | -2 | i | 12

Going on with the list:
item | SMILES | PABP FP inh | CSC inhib | MT1-MMP act inh | MT1-MMP act inh RFP | Yeast UUG start | eIF4H inh | Rce1 inhib | Env fusion inh
51 | CCOc1cnc(-c2c(-c3ccccc3Cl)noc2C)o1 | -7 | -5 | 1 | 0 | -25 | -7 | i | 19
52 | CCCc1nc2ccc(Br)cn2c1Cc1ccccc1 | x | x | -1 | -1 | 46 | x | x | 0
53 | CCC(=O)Nc1cc2c(cc1C(=O)CC)OCCO2 | 5 | -9 | 0 | 4 | -17 | 4 | i | x
54 | Cc1ccccc1NS(=O)(=O)c1ccc(C(=O)N2CCC2)cc1 | x | -6 | -1 | 0 | -4 | x | i | -36
55 | CCN(CC)CCCNC(=O)c1nn(-c2ccccc2OC)c(=O)c2ccccc12 | 0 | 0 | -12 | -7 | -13 | -9 | i | x
56 | Cc1cccc(Nc2nc3ccccc3s2)c1C | -9 | 18 | -5 | -4 | x | -3 | i | -118

Compound profiles, from the list above. Order of values: PABP FP inh, CSC inhib, MT1-MMP act inh, MT1-MMP act inh RFP, Yeast UUG start, eIF4H inh, Rce1 inhib, Env fusion inh
CCC(=O)Nc1cc2c(cc1C(=O)CC)OCCO2 is entered as 5, -9, 0, 4, -17, 4, i, x
Cc1cccc(Nc2nc3ccccc3s2)c1C is entered as -9, 18, -5, -4, x, -3, i, -118
Cc1ccccc1NS(=O)(=O)c1ccc(C(=O)N2CCC2)cc1 is entered as x, -6, -1, 0, -4, x, i, -36
CCCc1nc2ccc(Br)cn2c1Cc1ccccc1 is entered as x, x, -1, -1, 46, x, x, 0
CCOc1cnc(-c2c(-c3ccccc3Cl)noc2C)o1 is entered as -7, -5, 1, 0, -25, -7, i, 19

Another view of 2 compounds above:
52. CCCc1nc2ccc(Br)cn2c1Cc1ccccc1
- PABP FP inh: x
- CSC inhib: x
- MT1-MMP act inh: -1
- MT1-MMP act inh RFP: -1
- Yeast UUG start: 46
- eIF4H inh: x
- Rce1 inhib: x
- Env fusion inh: 0
53. CCC(=O)Nc1cc2c(cc1C(=O)CC)OCCO2
- PABP FP inh: 5
- CSC inhib: -9
- MT1-MMP act inh: 0
- MT1-MMP act inh RFP: 4
- Yeast UUG start: -17
- eIF4H inh: 4
- Rce1 inhib: i
- Env fusion inh: x

Rows are unselected. Share with any hit: about 3%.
